YopH inh: blocks Yersinia enterocolitica YopH tyrosine phosphatase | fluorescence Ex485/Em525 | inhibition, %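 (about 10 µM by stock and volumes)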 | actives 0.16% (n = 140,000);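 active = inhibition of 50% or more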;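 also: controls were vehicle for no effect and minimum signal wells for full effect; inactives centre near -20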
Arbovirus anti: arbovirus infection inhibition; arbovirus infection cell-based antiviral screen; actives 0.37% (n = 200,000); inhibition, % at 10 µM;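 active = inhibition from about 30%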;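 also: bluetongue infection of BSR cells; cell survival read as ATP light after 72 h; 0% = infected wells without compound and 100% = uninfected wells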
RecA splice inh: blocks M. tuberculosis RecA intein splicing; AID 2221; inhibition, %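 (about 9 µM by stock and volumes)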; cell-free RecA intein splicing, fluorescence; actives 0.75% (n = 290,000); in the data active = inhibition above about 30%; inconclusive = no clear call, values can overlap the other calls;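 also: 0% = vehicle wells and 100% = reference inhibitor control wells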
Target sequence (P9WHJ3 whole entry, looked up, canonical isoform): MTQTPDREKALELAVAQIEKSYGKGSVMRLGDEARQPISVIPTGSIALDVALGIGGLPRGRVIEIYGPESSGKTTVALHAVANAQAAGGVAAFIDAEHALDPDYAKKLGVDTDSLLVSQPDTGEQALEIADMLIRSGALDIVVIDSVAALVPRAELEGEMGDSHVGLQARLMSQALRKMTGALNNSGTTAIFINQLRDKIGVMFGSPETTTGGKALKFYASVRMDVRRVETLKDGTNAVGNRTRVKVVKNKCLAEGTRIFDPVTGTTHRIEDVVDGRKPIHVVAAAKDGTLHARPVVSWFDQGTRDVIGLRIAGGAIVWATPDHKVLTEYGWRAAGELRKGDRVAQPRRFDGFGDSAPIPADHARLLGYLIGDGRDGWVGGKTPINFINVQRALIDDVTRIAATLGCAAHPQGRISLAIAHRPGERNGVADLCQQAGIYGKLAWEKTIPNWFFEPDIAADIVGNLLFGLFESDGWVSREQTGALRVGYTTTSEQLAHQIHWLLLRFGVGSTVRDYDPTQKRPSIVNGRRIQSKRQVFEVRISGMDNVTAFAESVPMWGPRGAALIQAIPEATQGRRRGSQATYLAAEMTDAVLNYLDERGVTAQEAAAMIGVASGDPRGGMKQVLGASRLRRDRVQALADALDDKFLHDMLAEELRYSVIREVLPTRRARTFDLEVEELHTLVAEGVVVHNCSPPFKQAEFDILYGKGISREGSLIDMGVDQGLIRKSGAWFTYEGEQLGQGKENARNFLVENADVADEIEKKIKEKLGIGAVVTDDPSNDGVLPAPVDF
Mtb H37Rv: M. tuberculosis H37Rv growth inhibitors, H37Rv strain (AID 1626); one-dose inhibition, % at 10 µM; IC50 in µM for titrated hits; M. tuberculosis H37Rv growth inhibition; higher % means a stronger effect; actives 0.95% (n = 220,000);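 active = confirmed in a dose series; inconclusive = inhibition above 80% but not taken into the dose series; inactive = below 80% or under 30% at every dose of the series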;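 also: bacteria incubated seven days before Alamar blue readout; 0% = bacteria only wells and 100% = bacteria with antibiotic wells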
Mtb betalactam: beta-lactam sensitization of Mtb H37Rv | M. tuberculosis H37Rv growth with meropenem, percent inhibition; hits of this screen are not shown here | inhibition, % at 25 µM | actives 0.27% (n = 330,000) | AID 434955;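 active = about 74% or more and at least 40 points above the plate without the antibiotic, then above 30% in a dose series; inconclusive = first-round hits that could not be retested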;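 also: growth measured after seven days incubation then overnight dye step; 0% = bacteria only wells and 100% = bacteria with antibiotic; twin plates without the antibiotic show which effects depend on it; some results filed as inactive read as strong as hits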
Arbovirus anti repeat: second read-out of Arbovirus anti, no call of its own (marks repeat the call); inhibition, %; measured here: 10K subset replicate screen; many hits read low in the repeat;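 first of two repeat runs on a subset; 0% = infected and 100% = uninfected wells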
* = called active by the depositor; ? = inconclusive; . = not tested or not shown. These rows are one share of the data, so the mix of outcomes need not match the whole.

SMILES | YopH inh | Arbovirus anti | RecA splice inh | Mtb H37Rv | Mtb betalactam | others
CCc1ccccc1N(C)S(=O)(=O)c1ccc2[nH]cc(C(=O)N3CCc4ccccc43)c(=O)c2c1 | 0 | -15 | 5.3 | 2% | 6
CCOC(=O)C(=CNc1cccc(C)c1C)C(=O)OCC | -15 | 5 | 1.6 | 6% | 74
COC(=O)c1ccc(SCc2ccccc2)nc1 | . | . | 1.7 | . | 0
O=S(=O)(NCC(c1cccnc1)N1CCN(c2ccc(F)cc2)CC1)c1cc(F)ccc1F (stereo not drawn) | -36 | 0 | 2.3 | 12% | 34
COc1ccc(S(=O)(=O)n2nc(C)cc2C)cc1OC | . | . | -0.3 | . | -11
Cc1ccc(-n2ncc3c(NCc4ccc5c(c4)OCO5)ncnc32)c(C)c1 | -9 | -9 | 3.9 | 1% | 42
COCc1c(C(=O)OC)nnn1-c1ccccc1 | 33 | -5 | 0.9 | -5% | -5
O=C(Nc1ccc(F)cc1F)NC1CC1 | . | 2 | -0.8 | 5% | -4
COc1ccc(OC)c(C2=NNC(=NCc3ccc4c(c3)OCO4)SC2)c1 | -23 | -10 | 6.8 | 2% | 9
Cc1ccc(N(C(=O)c2ccc(S(=O)(=O)N(C)C)cc2)C2C=CS(=O)(=O)C2)cc1 (stereo not drawn) | . | 3 | -0.4 | 7% | 1
CCOc1ccc(C(=S)N2CCOCC2)cc1OC | 50* | 2 | -4.0 | -4% | -11
Cc1sc2ncnc(NCCCO)c2c1C | -34 | 7 | -2.0 | -8% | 11 | Arbovirus anti repeat=3
CC(C)Oc1ccc(C(CCN)C2CCCCC2)cc1 (stereo not drawn) | . | . | 8.8 | . | 65
CCOC(=O)C1(CCCc2ccccc2)CCN(S(C)(=O)=O)CC1 | . | . | -0.4 | . | 7
O=C(O)C1CCCCC1C(=O)Nc1cccc(Cl)c1Cl (stereo not drawn) | -11 | 5 | 0.2 | 3% | 3
COc1ccc(N(C(=O)CCl)C(C(=O)NCCc2ccccc2)c2cccs2)cc1Cl (stereo not drawn) | -15 | -41 | 77* | 57% | 88
COc1ccc(CNC(=O)CCNS(=O)(=O)c2cccc3nsnc23)cc1 | . | 1 | -0.9 | 5% | -3
Clc1ccc(-c2ccc(SCc3ccccn3)nn2)cc1 | -58 | -5 | -2.6 | -1% | -4
Cc1ccc(/C=N/NC(=O)c2nnn(-c3nonc3N)c2CNc2ccccc2)cc1 | . | . | -0.3 | . | -1
O=C(Oc1ccc(C(=S)N2CCOCC2)cc1)c1ccccc1 | . | 1 | -1.2 | 13% | 4
CCN(CC)C(=O)C(=O)Nc1cccc(Br)c1 | . | 3 | 5.1 | 0% | -4
Cc1cc(C)nc(/N=C(\N)N(Cc2ccccc2)Cc2ccccc2)n1 | . | -21 | 6.7 | 3% | -4
CCC(=O)NCCCc1nc2ccccc2n1Cc1ccccc1F | . | 1 | -0.9 | 2% | 6
CCN1CCN(S(=O)(=O)c2ccc3ccccc3c2)CC1 | 10 | 6 | -0.5 | -5% | 0
COc1cccc(CCNC(=O)CC2C(=O)NCCN2CC(C)(C)C)c1 (stereo not drawn) | . | 2 | 4.2 | 15% | -4
O=C1CC(C(F)(F)C(F)(F)C(F)(F)F)=Nc2ccccc2N1 | -25 | 0 | -1.0 | -1% | 3
CCCNC(=O)c1cc(S(=O)(=O)N2CCc3ccccc32)cn1C | . | . | -1.9 | . | 5
COc1ccccc1NC(=O)Nc1ccc(C(N)=O)cc1 | . | 4 | -0.4 | 4% | -2
Cc1csc(NC(=O)CSc2nnc(CCNC(=O)c3ccc(Cl)c(Cl)c3)n2C)n1 | -16 | -5 | -0.8 | -9% | 0
Cc1ccc(-n2nc(C)c3c(C)c(CCC(=O)NCc4ccco4)c(C)nc32)cc1 | -6 | 1 | -0.6 | . | 4 | Arbovirus anti repeat=-11
O=C(CCNC(=O)N1CC(=O)Nc2ccccc21)NCc1cccc(Cl)c1 | . | . | -1.8 | . | 2
CC(C)c1ccc(/C=C/c2[nH]c(=O)[nH]c(=O)c2[N+](=O)[O-])cc1 | . | . | 3.3 | . | 0
O=C(Cc1ccccc1)Nc1nnc(-c2ccco2)o1 | . | 9 | -6.9 | 1% | 5
Cn1cnnc1SCC(=O)Nc1ccc(Br)cc1F | -12 | -6 | 0.1 | -14% | -1
CSCc1ccc(C(=O)NCc2ccc(C)cc2)cc1 | -24 | 2 | -0.1 | 5% | -8
N/C(=N\NS(=O)(=O)c1ccccc1C(F)(F)F)c1ccccn1 | . | . | . | -21% | 5
CCc1nnc(NC(=O)c2ccc(-c3cccc(C(F)(F)F)c3)o2)s1 | -29 | -3 | . | -5% | ?
Clc1ccc(OCCN2CCOCC2)cc1 | . | . | 1.4 | . | -3
C=CCSc1ncccc1C(=O)NCCc1ccc(Cl)cc1 | . | . | 2.3 | . | 3
CCN1C(=O)C(C)S/C1=N\S(=O)(=O)c1ccc(F)cc1 (stereo not drawn) | -20 | -1 | -3.0 | 9% | 7
O=c1[nH]c2ccccc2cc1-c1noc(-c2cccnc2)n1 | -42 | 9 | . | -1% | 1
CC1(C)N([O-])C(c2ccccc2)=C[N+](=O)C1(C)C | -47 | -2 | -2.4 | -9% | -3
O=C(CCc1nc2ccccc2c(=O)[nH]1)OCc1nnc(-c2ccccc2)o1 | -31 | 1 | -13 | -8% | -6
CCN1CCN(c2nc(Nc3ccc(C)c(C)c3)nc(N)c2[N+](=O)[O-])CC1 | -16 | -32 | 0.3 | 9% | 7
Cc1ccc(CS(=O)(=O)Cc2ccc(C(=O)N3CCC4(CC3)OCCO4)o2)cc1 | -39 | 0 | 0.2 | -6% | -2
COc1cc(OC)c(NC(=O)Cn2cccc2)cc1Cl | -2 | -10 | 4.3 | 3% | -17
CCc1cc2c(=O)[nH]c(-c3ccncc3)nc2s1 | -10 | -1 | 0.7 | -10% | 4
CN1CCN(C(=O)C2CCC(=O)N(Cc3cccc(C(F)(F)F)c3)C2)CC1 (stereo not drawn) | . | . | 0.2 | . | 4
CNC(=O)c1c(NC(=O)CCS(=O)(=O)c2ccc(F)cc2)sc(C)c1C | . | . | -0.8 | . | -12
O=C(Nc1cccc(C(F)(F)F)c1)C1(c2ccccc2)CC1 | -17 | -7 | 2.4 | -2% | ?
COc1cc2c(cc1OC)C1(NCC2)C(=O)Nc2ccccc21 (stereo not drawn) | -22 | 5 | -0.2 | 1% | 3
CC(=O)Cn1cnc2scc(-c3ccc(C)c(C)c3)c2c1=O | . | . | 0.2 | . | 7
Nn1c(SCC(=O)Nc2ccc(F)c(F)c2)nnc1C1CCCCC1 | -35 | 2 | -0.2 | -5% | 1
CCOC(=O)/C(C#N)=C\c1ccc2c(c1)OCO2 | -24 | . | -2.3 | -2% | 0
Cc1ccc(S(=O)(=O)NCc2nc3ccccc3[nH]2)cc1 | -36 | 1 | -0.8 | 2% | 3 | Arbovirus anti repeat=2
O=[N+]([O-])c1ccc(C[n+]2cc(-c3ccc(Cl)c(Cl)c3)n3c2CCCCC3)cc1 | . | . | -1.2 | 11% | -5
Cc1ccc(C2(C)NC(=O)N(CC(=O)N3CCN(S(=O)(=O)c4cccs4)CC3)C2=O)cc1 (stereo not drawn) | . | . | -1.1 | . | -2
O=C(COc1ccc(Cl)cc1)N1CCN(C(=O)c2cccc(F)c2)CC1 | -21 | 7 | 0.5 | 5% | -13
C/C(CC(=O)Nc1cccc(C(F)(F)F)c1)=N\NC(=O)Cc1ccccc1 | . | -4 | 5.3 | 20% | -6
Cc1ccc(NC(=O)N(CCCN2CCOCC2)Cc2cccs2)cc1C | -9 | -3 | 0.2 | 4% | 5
Following part.
SMILES | YopH inh | Arbovirus anti | RecA splice inh | Mtb H37Rv | Mtb betalactam | others
COC(=O)C1(CCSC)NC(c2ccccc2F)C2C(=O)N(c3ccc4c(c3)OCCO4)C(=O)C21 (stereo not drawn) | . | 12 | -1.1 | 0% | -3
C/C(=N\NC(=O)c1c(C)nc2ccccn12)c1ccc(C(C)(C)C)cc1 | . | . | -1.1 | . | 14
COCOc1ccc(-c2cc(=O)c3c(OCOC)cc(OCOC)cc3o2)cc1 | . | . | -0.7 | 7% | -1
Cc1cccc(/C(N)=N/OC(=O)c2cccnc2)c1 | . | -2 | 3.2 | -3% | -4
CC(C)(C)N1NC2(CCCCC2)NC1=S | . | 3 | 1.8 | 5% | -5
CCOc1ccccc1NC(=O)COn1nnc2ccc(Cl)cc21 | 18 | 1 | -2.6 | 4% | -5
O=C(NCC1CCCO1)C1CCC(=O)N1CCc1ccccc1 (stereo not drawn) | -42 | -1 | -2.0 | 0% | -4
CCCC1C(C#N)=C(N)Oc2c1c(=O)oc1ccccc21 (stereo not drawn) | -22 | 6 | 1.0 | -7% | -14
N/C(=N\OS(=O)(=O)c1ccccc1)c1ccncc1 | -10 | 4 | 1.0 | -4% | -13
CCCN(CCO)Cc1ccc(Cl)c(Cl)c1 | -13 | -1 | 1.9 | -4% | 4
O=C(CNC(=O)C1CCCCC1)NNC(=O)c1ccc(Cl)cc1Cl | . | . | -1.9 | . | -4
CCOC(=O)N(NC(=O)C(O)(C(C)C)C(C)C)c1ccccc1 | . | 5 | 1.5 | 6% | -1
Cc1cc(C(=O)Nc2ccccc2)oc1C | 10 | 2 | 3.0 | -11% | -9
COc1ccc(Cl)cc1NCCC(O)c1ccc(F)cc1 (stereo not drawn) | . | . | 1.7 | . | -3
Nc1nnc(SCC(=O)N2CCN(c3cccc(Cl)c3)CC2)n1-c1ccccc1 | -28 | 5 | 3.4 | -7% | -1
N#CC1=C(N)SC2(CCCCC2)SC1c1ccccc1 (stereo not drawn) | -36 | -2 | 2.3 | 2% | -1
COC(=O)c1cc(S(=O)(=O)N2CCOCC2)c(Cl)cc1N1CCOCC1 | -22 | 3 | . | 3% | -14
CCCNC(=O)c1ccc(N2CCC3(CC2)CC(c2ccccc2)=NO3)c(N)c1 | . | . | -1.7 | . | -5
Cn1cc(CN2CCCC(C(=O)c3ccc(-c4ccccc4)c(F)c3)C2)cn1 (stereo not drawn) | . | -24 | 0.2 | 6% | 3
O=C(Nc1ccc([N+](=O)[O-])cc1)C1COc2ccccc2O1 (stereo not drawn) | . | . | 1.5 | . | 5
COc1ccc2[nH]c3c(N4CC(C)OC(C)C4)ncnc3c2c1 (stereo not drawn) | -20 | -1 | 4.1 | 0% | 4
Cc1ccc(S(=O)(=O)n2c(CN3CCCC(C)C3)nc3ccccc32)cc1 (stereo not drawn) | -13 | -11 | 18 | -2% | 95
CS(=O)(=O)N(Cc1ccc(C(=O)NN=C2CCCC2)cc1)c1ccccc1 | -29 | 4 | 0.4 | -14% | 0
CCOc1ccc(CCNC(=O)COC(=O)c2nccnc2N)cc1OCC | . | . | -3.0 | . | -1

By substructure: the compounds so far with an aryl methoxy group (11)
SMILES | YopH inh | Arbovirus anti | RecA splice inh | Mtb H37Rv | Mtb betalactam | others
COc1ccc(S(=O)(=O)n2nc(C)cc2C)cc1OC | . | . | -0.3 | . | -11
COc1ccc(OC)c(C2=NNC(=NCc3ccc4c(c3)OCO4)SC2)c1 | -23 | -10 | 6.8 | 2% | 9
CCOc1ccc(C(=S)N2CCOCC2)cc1OC | 50* | 2 | -4.0 | -4% | -11
COc1ccc(N(C(=O)CCl)C(C(=O)NCCc2ccccc2)c2cccs2)cc1Cl (stereo not drawn) | -15 | -41 | 77* | 57% | 88
COc1ccc(CNC(=O)CCNS(=O)(=O)c2cccc3nsnc23)cc1 | . | 1 | -0.9 | 5% | -3
COc1cccc(CCNC(=O)CC2C(=O)NCCN2CC(C)(C)C)c1 (stereo not drawn) | . | 2 | 4.2 | 15% | -4
COc1ccccc1NC(=O)Nc1ccc(C(N)=O)cc1 | . | 4 | -0.4 | 4% | -2
COc1cc(OC)c(NC(=O)Cn2cccc2)cc1Cl | -2 | -10 | 4.3 | 3% | -17
COc1cc2c(cc1OC)C1(NCC2)C(=O)Nc2ccccc21 (stereo not drawn) | -22 | 5 | -0.2 | 1% | 3
COc1ccc(Cl)cc1NCCC(O)c1ccc(F)cc1 (stereo not drawn) | . | . | 1.7 | . | -3
COc1ccc2[nH]c3c(N4CC(C)OC(C)C4)ncnc3c2c1 (stereo not drawn) | -20 | -1 | 4.1 | 0% | 4

Two neighbouring compounds from above:
SMILES | YopH inh | Arbovirus anti | RecA splice inh | Mtb H37Rv | Mtb betalactam | others
CCc1ccccc1N(C)S(=O)(=O)c1ccc2[nH]cc(C(=O)N3CCc4ccccc43)c(=O)c2c1 | 0 | -15 | 5.3 | 2% | 6
CCOC(=O)C(=CNc1cccc(C)c1C)C(=O)OCC | -15 | 5 | 1.6 | 6% | 74
